HCMV UL50-53 inh: inhibitors of HCMV UL50-UL53 nuclear egress complex interaction. inhibition, % (concentration not given with the values). HTRF UL50-UL53 interaction, normalized percent inhibition. AID 1918969. actives 0.15% (n = 190,000);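 active = both replicates at 50% or more, plus weaker picks with an unusually low signal ratio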;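 also: stock transfer was 100 nL into about 20 µL; 0% = negative control wells and 100% = wells with untagged competitor protein; inactives centre near -12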
* marks the source's active call; other numbers are inactive results; & = joins results of further samples. A portion of the library; rates above refer to the full screens.

SMILES	HCMV UL50-53 inh
COc1ccccc1Oc1ccc(S(=O)(=O)N2CCOCC2)cc1	-1
Clc1nc(-c2ccccc2)nc2ccsc12	6
CN1C(=O)/C(=C\c2ccc(O)cc2)SC1=S	-43
O=C(Nc1ccc2c(c1)OCO2)Oc1ccccc1	3
COC(=O)Nc1sc(-c2ccc(Cl)cc2)nc1-c1cccs1	-2
Cc1nn(C)c(C)c1-c1ccnc(N2CCCC2c2nc(-c3cccnc3)no2)n1 (configuration not stated)	-26&-26
CCOC(=O)C1=C(C)NC(C)=C(C(=O)OCC)C1c1ccccc1C=CC(=O)OC(C)(C)C	-16&-70
C=CCNc1nc(-c2ccccc2)nc(-c2ccccc2)c1C#N	8
Cc1cccc(OCC(O)Cn2cnc3ccccc32)c1 (configuration not stated)	-12
O=C(Oc1ccc2ccc(=O)oc2c1)N1CCOCC1	7&-17
Brc1ccc(-n2cccc2)cc1	-3
O=C(O)c1ccc(-c2c[nH]c3ncc(-c4ccccc4)cc23)cc1C1CCCC1	6&2&-2
C[C@H](O)[C@H]1NC(=O)[C@@H]2C[C@H](NC(=O)Nc3cccc(F)c3)CN2C1=O	-5
CCCc1cc(=O)oc2cc(OCC)ccc12	-11
Cc1ccc(-c2nnc(SCC(=O)Nc3cc(C)ccc3C)n2N)cc1	-2
CC1C(C#N)=C(N)OC2=C1C(=O)CC(c1ccccc1)C2 (configuration not stated)	-14
Cc1ccc(C(=O)N/C(=C/c2ccco2)C(=O)N2CCOCC2)cc1	6
Cc1ccc(NC(=O)CSC2=NCCS2)c(C)c1	-10
COc1cc(Cn2c(-c3ccc(O)c(OC)c3)nc3ccccc32)ccc1O	-12
O=S(=O)(c1ccccc1)N1CCC2CCCCC2C1 (configuration not stated)	-22
O=C(CSc1c[nH]c2ccccc12)N1CCc2ccccc21	0
CCN(CC)Cc1oc(CO)cc(=O)c1O	-28
Cc1sc2ncn3cnnc3c2c1-c1ccc(F)cc1	-20
CCCc1nnc2n1N=C(c1ccc(OC)c(OC)c1)CS2	-20
c1ccc(Sc2c(-c3ccccc3)nc3ncccn23)cc1	-27

The final ten records of the part before lead into the next.
SMILES	HCMV UL50-53 inh
CC1C(C#N)=C(N)OC2=C1C(=O)CC(c1ccccc1)C2 (configuration not stated)	-14
Cc1ccc(C(=O)N/C(=C/c2ccco2)C(=O)N2CCOCC2)cc1	6
Cc1ccc(NC(=O)CSC2=NCCS2)c(C)c1	-10
COc1cc(Cn2c(-c3ccc(O)c(OC)c3)nc3ccccc32)ccc1O	-12
O=S(=O)(c1ccccc1)N1CCC2CCCCC2C1 (configuration not stated)	-22
O=C(CSc1c[nH]c2ccccc12)N1CCc2ccccc21	0
CCN(CC)Cc1oc(CO)cc(=O)c1O	-28
Cc1sc2ncn3cnnc3c2c1-c1ccc(F)cc1	-20
CCCc1nnc2n1N=C(c1ccc(OC)c(OC)c1)CS2	-20
c1ccc(Sc2c(-c3ccccc3)nc3ncccn23)cc1	-27
COc1ccc(-c2cc3c(n(C)c2=O)CCN(C2CCSC2)C3)c2ccc(C)nc12 (configuration not stated)	-49
CCCC(NC(=O)c1ccc(C#N)cc1)c1ccccc1 (configuration not stated)	-16
Nc1nc(NC(Cn2ccnc2)c2ccccc2)c2cn[nH]c2n1 (configuration not stated)	-17&-17
CC(N)(C(=O)O)c1ccc(-c2nn[nH]n2)cc1 (configuration not stated)	-1
CC1CCC(NC(=O)c2cc(-c3ccccc3)n[nH]2)CC1 (configuration not stated)	-3
CC1CCc2nc(NC(=O)CN3C(=O)CCC3=O)sc2C1 (configuration not stated)	-17
C=CCc1ccccc1OCC(O)CN1CCN(c2ccccc2F)CC1 (configuration not stated)	4
CCCCNC(=O)[C@@H]1C[C@H](CN2CCOCC2)CN(CCc2ccccc2)C1	-5
O=C(O)CCC/C=C\C[C@@H]1[C@@H](/C=C/[C@@H](O)C2Cc3ccccc3C2)[C@@H](F)C[C@@H]1O	3&3
CCc1cnn2c(NCc3ccc[n+]([O-])c3)cc(N3CCCCC3CCO)nc12 (configuration not stated)	-3
CCCSc1nnc(NC(=O)c2ccccc2Br)s1	-20
CC(C)N1C(=O)CCC1C(=O)NCc1cccs1 (configuration not stated)	-8
CCN(Cc1ccccc1)CC(O)COc1ccc(Cl)cc1Cl (configuration not stated)	-7
O=S(=O)(c1ccccc1)n1ccc2ccccc21	4
CC(C)Sc1nc2c([nH]c3ccccc32)c(=O)n1-c1ccccc1	2
COC1CS(=O)(=O)CC1OC (configuration not stated)	5
C=CCc1ccc(O)c(-c2cc(CC=C)ccc2O)c1	-3
CCOC(=O)C(C)Oc1ccc2ccc(=O)oc2c1 (configuration not stated)	-19
Cc1ccc(C(=O)O)cc1NC(=O)c1cccc(Cl)c1	-9
Cc1cccc(Nc2ncnc3nc[nH]c23)c1	-10
N#Cc1ccccc1NC(=O)c1cccc(C(F)(F)F)c1	-4
O=C(c1cc(Cl)sc1Cl)N1CCc2ccccc21	-5
CC1CCc2sc(NC(=O)c3ccco3)c(C#N)c2C1 (configuration not stated)	-7
CC(C)C(CO)Nc1nc(Nc2cc(C(=O)O)cc(C(=O)O)c2)c2ncn(C(C)C)c2n1 (configuration not stated)	-2
Cc1ccc(NC(=O)C2CC23CCCCC3)cn1 (configuration not stated)	-10&-10
SMILES	HCMV UL50-53 inh
COC(=O)c1ccc(OCc2c(C)noc2C)cc1	-3
COc1cc(N=C(N)N=C(N)N)cc(OC)c1	-19
NC(=O)NCc1cn(C2CCN(C(=O)C3CCCCCC3)CC2)nn1	-20
COc1ccc(-n2nc3c(c2NC(=O)CCc2ccccc2)CSC3)cc1	-22
CCn1ncc2[nH]c(-c3c(OC(C)C)ccc4ccccc34)nc21	-42&-42
OC(c1ccccc1)c1ccccn1 (configuration not stated)	-11
Cc1ccc(N(C(=O)COc2ccccc2)C2C=CS(=O)(=O)C2)cc1 (configuration not stated)	-1
Cc1ccsc1C(=O)N1CCC(n2cc(C(C)(C)O)nn2)CC1	-31
CCc1cc(C(=O)OC)c(N2C(=O)C=CC2=O)s1	1
CC(=O)Oc1ccccc1C(=O)Oc1ccccc1C(=O)O	-5
Cn1c(=O)c2c(nc(N3CCNCC3)n2Cc2ccccc2)n(C)c1=O	-12
O=C1CCN(S(=O)(=O)c2cccs2)CCN1	-8
Cn1cc(SCC(=O)NCc2ccco2)c2ccccc21	-8
CCn1c(CNC(=O)COC)nc2ccccc21	-13
Brc1cc(Br)c2nc(-c3nccs3)ccc2c1	-29
CC(C)C(=O)Nc1nnc(SCc2cccc(F)c2)s1	-16
Cc1nc2ccc(-n3cccc3)cc2o1	0
c1ccc(N2CCN(Cc3nc4ccccc4[nH]3)CC2)nc1	4
C[C@H]1CC[C@H]2[C@@H](C)C(OC(=O)CCC(=O)O)O[C@H]3O[C@@]4(C)CC[C@@H]1[C@]32OO4 (some centres not stated)	-1
COC(=O)CN1Cc2ccccc2C1=O	-5
Cc1ccc(OCC(O)CN2CCCCC2)c(C)c1 (configuration not stated)	-5
O=C1C(=O)N(CCN2CCOCC2)C(c2ccc(F)cc2)/C1=C(\O)c1ccc(F)cc1 (configuration not stated)	-16
CCC(=O)NCCn1ccc2ccccc21	9
CCN(CC)C(=O)CCC/C=C\C[C@@H]1[C@@H](/C=C/[C@@H](O)CCc2ccccc2)[C@H](O)C[C@@H]1O	-22&-22
CCCCn1cc(-c2cc(C(=O)N3CCCC3C)c3cccc(C)c3n2)cn1 (configuration not stated)	-24

Another view of six compounds above.
canonical_smiles,HCMV UL50-53 inh
CC(C)N1C(=O)CCC1C(=O)NCc1cccs1 (configuration not stated),-8
CCN(Cc1ccccc1)CC(O)COc1ccc(Cl)cc1Cl (configuration not stated),-7
Cn1c(=O)c2c(nc(N3CCNCC3)n2Cc2ccccc2)n(C)c1=O,-12
CCc1cnn2c(NCc3ccc[n+]([O-])c3)cc(N3CCCCC3CCO)nc12 (configuration not stated),-3
CC1CCc2sc(NC(=O)c3ccco3)c(C#N)c2C1 (configuration not stated),-7
c1ccc(N2CCN(Cc3nc4ccccc4[nH]3)CC2)nc1,4

Additional structures follow:
SMILES	HCMV UL50-53 inh
CCC(C(C)O)n1ncn(-c2ccc(N3CCN(c4ccc(OCC5CO[C@@](Cn6cncn6)(c6ccc(F)cc6F)C5)cc4)CC3)cc2)c1=O (some centres not stated)	-1
Oc1ccc(-c2nc3cc(O)cc(Br)c3o2)cc1	-2
COC(=O)COc1cc2oc(=O)cc(-c3ccccc3)c2cc1Cl	4
NNc1nc2cc3c(cc2s1)OCCO3	4
CCCCCCCCCCCCCCCCOC[C@H](COP(=O)([O-])OCC[N+](C)(C)C)SC(=O)CCCCCC	4&4
COC(=O)CCC(=O)c1ccc(Br)s1	-7
Nc1nonc1C(=Nc1ccc(F)c(Cl)c1)NO	-1
Cc1ccc(NC(=O)CC2SC(N)=NC2=O)cc1C (configuration not stated)	-5
CCOC(=O)c1nn(CCc2ccccc2)c2c1CN(C(=O)CCc1nc3ccccc3s1)CC2	-4
CC(=O)Nc1nc(-c2ccccc2)c(C(=O)c2ccccc2)s1	-12
CCCC1=C(C(=O)OCC)C(c2ccccc2)C(C#N)=C(N)O1 (configuration not stated)	-11
CCOc1cc(O)c(-c2[nH]ncc2Oc2ccccc2)cc1CC	-16
Cc1cc2cc(CNC(=O)CCCc3ccccc3)ccc2[nH]1	-14
CC(=O)Oc1cccc(C)c1	-14
Cc1ccc(NC(=O)CCCCCC(=O)Nc2ccccc2N)cc1	-17&-17
C=CCn1c(CCNC(=O)C(C)(C)C)nc2ccccc21	-5
COC1CC2CCC(C)[C@@](O)(O2)C(=O)C(=O)N2CCCCC2C(=O)OC(C(C)CC2CCC(OCCO)C(OC)C2)CC(=O)C(C)C=C(C)C(O)C(OC)C(=O)C(C)CC(C)C=CC=CC=C1C (some centres not stated)	-7
CCOc1cc(/C=C2\SC(=S)N(C(C)C(=O)O)C2=O)ccc1O (configuration not stated)	-104
COC(=O)CC1COc2ccccc2N1C(=O)/C=C/c1ccccc1 (configuration not stated)	-5
CCCCn1c2ccc(O)cc2c2c3c(c(-c4ccccc4Cl)cc21)C(=O)NC3=O	14
Cn1nc2c3c(cccc31)C(=O)c1ccccc1-2	-98
Cc1nsc(NC(=O)NC(C)c2ccc(Cl)cc2)n1 (configuration not stated)	-7
CCOC(=O)C1CCCN(CCC(=O)Nc2cc(C)ccc2C)C1 (configuration not stated)	10&-8
Cn1c(C2CC(=O)N(c3ccccc3)C2)nc2ccccc21 (configuration not stated)	9&4
COc1ccc(CNCc2cccc3ccccc23)cc1	-22

Four compounds picked at random from those above, as already listed:
SMILES	HCMV UL50-53 inh
CCCC1=C(C(=O)OCC)C(c2ccccc2)C(C#N)=C(N)O1 (configuration not stated)	-11
Cc1ccc(NC(=O)CC2SC(N)=NC2=O)cc1C (configuration not stated)	-5
COc1ccc(CNCc2cccc3ccccc23)cc1	-22
COC(=O)CC1COc2ccccc2N1C(=O)/C=C/c1ccccc1 (configuration not stated)	-5

Remaining list, next part
SMILES	HCMV UL50-53 inh
CC(C)(C)c1cn(C2CCN(C(=O)CC3CCCCCC3)CC2)nn1	-2
Cc1c(C#N)c(SCc2cccc(C(F)(F)F)c2)nc2ccccc12	-2
O=C(NCc1ccc2[nH]c3c(c2c1)CCCC3)C1CC1	-1
CCn1c(O)c(/C=N/c2nc3ccccc3[nH]2)sc1=S	-3
COc1cccc(C2c3c(oc4ccccc4c3=O)C(=O)N2CCO)c1 (configuration not stated)	2
COc1ccc(Br)cc1S(=O)(=O)n1ccnc1	5
COc1ccc(S(=O)(=O)NCCn2ccc3ccccc32)cc1	6
Cc1ccc(NC(=O)c2cccn(OCc3ccccc3)c2=O)cc1C	-14
Cc1ccc2c(c1)c(C)c(C)n2CC(O)Cn1nnc2ccccc21 (configuration not stated)	-2
Cc1onc(-c2ccccc2)c1C(=O)N1CC(=O)N(Cc2ccccc2)CC(OCC2CC2)C1 (configuration not stated)	5
CCC(=O)Nc1nnc(SC)s1	-21
CCOC(=O)CSc1nc(N)c2c(C)c(C)sc2n1	2
CC(=O)Nc1nc(-c2cccc3ccccc23)cs1	-21
CC(=O)NCC1CN(c2ccc(N3CCOCC3)c(F)c2)C(=O)O1 (configuration not stated)	-12&-92
Cc1ccccc1CN[C@H]1C[C@H]2C(=O)N[C@@H]([C@@H](C)O)C(=O)N2C1	-7
COc1ccc(CCN2COc3c(cc(Cl)c4cccnc34)C2)cc1OC	-27
CCOC(=O)c1c(C)oc2c1c(C=NCc1ccccn1)c(O)c1ccccc12	-8
COCc1nc2ccccc2n1Cc1ccccc1Cl	-8
Nc1c(-c2cccc(C(F)(F)F)c2)cnn1-c1ccccc1	-7
CCC1CCCCN1C(=O)CSC1=NN2CCCC(=O)N=C2S1 (configuration not stated)	-14
CCC(=C(CC)c1ccc(O)cc1)c1ccc(O)cc1	8
COCc1nc2ccccc2n1Cc1ccccc1C	-12
CSc1nc(C2CC2)cc(-c2ccccc2)c1C#N	-9
O=C(NCCCn1ccnc1)c1cc(C(=O)C2CC2)c[nH]1	-1
NC(C(=O)O)c1ccc(C(=O)O)c(C(=O)O)c1 (configuration not stated)	-4
SMILES	HCMV UL50-53 inh
CCn1cc(S(=O)(=O)CC(=O)Nc2ccccc2)c2ccccc21	-4
COc1ccc2cc(Br)ccc2c1CC(=O)NC(C)C	-27
Cc1ccc(CNC(=O)c2nn(C)c3c2CC(NC2CCN(Cc4ccccc4)CC2)CC3)o1 (configuration not stated)	-4
C=CCNC(=O)CCn1c(=O)oc2ccccc21	-14
CC(C)n1c(CCNC(=O)C(C)(C)C)nc2ccccc21	-14
CC(=O)Sc1nc(-c2ccc(C)cc2)[nH]c1S(=O)(=O)c1ccccc1	-4

Screening data: PubChem BioAssay, ICCB-Longwood Screening Facility, Harvard Medical School
